RGS16-Gao = modulators of RGS16 binding to Galphao, primary screen, biochemical, human proteins, multiplexed bead flow cytometry | Regulator of G-protein signaling 16 (Homo sapiens) + Guanine nucleotide-binding protein … | bead-based flow cytometry RGS16-Galphao binding, fluorescence; actives lie on both sides | binding response (% of control), % at 10 µM | 220,000 compounds, 0.38% hits;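 active = below 25% or above 175%, edge rows of some plates excepted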;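 also: Galphao activated by GDP with aluminum fluoride before binding; 100% = wells without compound and 0% = beads without RGS; some results beyond the cut were filed as inactive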
Target sequence (O15492 whole entry, looked up): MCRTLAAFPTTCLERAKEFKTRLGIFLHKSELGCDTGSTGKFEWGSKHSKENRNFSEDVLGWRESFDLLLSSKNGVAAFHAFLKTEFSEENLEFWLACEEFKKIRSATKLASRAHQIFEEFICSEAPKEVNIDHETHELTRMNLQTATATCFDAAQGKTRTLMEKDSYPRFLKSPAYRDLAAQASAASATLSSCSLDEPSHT
Target sequence (P09471 whole entry, looked up): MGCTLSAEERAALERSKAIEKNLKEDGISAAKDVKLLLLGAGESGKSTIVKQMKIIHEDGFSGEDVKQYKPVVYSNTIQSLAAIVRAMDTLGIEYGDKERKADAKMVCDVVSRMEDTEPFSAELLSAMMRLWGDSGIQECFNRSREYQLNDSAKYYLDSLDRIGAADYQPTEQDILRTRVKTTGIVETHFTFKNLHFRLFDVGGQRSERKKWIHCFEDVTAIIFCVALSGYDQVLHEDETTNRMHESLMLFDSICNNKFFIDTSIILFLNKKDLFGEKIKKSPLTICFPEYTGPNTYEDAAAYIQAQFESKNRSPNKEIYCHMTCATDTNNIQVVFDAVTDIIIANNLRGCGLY
HSV replic up = enhancers of HSV replication in host cells, fold increase, host cell viability. HSV replication augmentation in cells. 220,000 compounds, 0.005% hits. maximum fold increase;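 active = peak rise of 1.5-fold or more in the series; tested in PC3 cells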;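 also: first round at 10 µM; read as green reporter fluorescence; hits show the peak of a series up to 25 µM; 1 = signal of infected wells without compound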
PKD1 kinase inh = inhibitors of human PKD1 kinase, biochemical, fluorescence polarization; Serine/threonine-protein kinase D1 (Homo sapiens), Q15139; PKD1 kinase fluorescence polarization assay; inhibition, %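 (about 10 µM by stock and volumes)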; 200,000 compounds, 0.056% hits;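 active = inhibition of 50% or more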;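 also: controls were vehicle for no effect and a reference inhibitor for full effect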
INS promoter inh = inhibitors of insulin promoter-driven GFP, primary screen, imaging, TRM-6 cells (human fetal islet line), eGFP reporter, cell count | 130,000 compounds, 0.9% hits | reporter expression induced with tamoxifen | inhibition, % at 2 µM;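 active = inhibition above the mean plus 3 SD, with well images judged a real hit on visual review, cut at about 60% in these data, passing the limit was not always enough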
GALR2 ag = GALR2 receptor agonists, primary screen, cell-based; 140,000 compounds, 0.48% hits; GALR2-expressing cells, agonist activation read-out; activation, %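 (tested at 5 µM)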; Galanin receptor type 2 (Homo sapiens), O43603;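 active = above mean plus 3 SD of all compounds, about 5% in these data, not always enough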;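 also: 0% = vehicle buffer wells and 100% = reference agonist at full effect; tested in CHO reporter cells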
Target sequence (O43603 whole entry, looked up): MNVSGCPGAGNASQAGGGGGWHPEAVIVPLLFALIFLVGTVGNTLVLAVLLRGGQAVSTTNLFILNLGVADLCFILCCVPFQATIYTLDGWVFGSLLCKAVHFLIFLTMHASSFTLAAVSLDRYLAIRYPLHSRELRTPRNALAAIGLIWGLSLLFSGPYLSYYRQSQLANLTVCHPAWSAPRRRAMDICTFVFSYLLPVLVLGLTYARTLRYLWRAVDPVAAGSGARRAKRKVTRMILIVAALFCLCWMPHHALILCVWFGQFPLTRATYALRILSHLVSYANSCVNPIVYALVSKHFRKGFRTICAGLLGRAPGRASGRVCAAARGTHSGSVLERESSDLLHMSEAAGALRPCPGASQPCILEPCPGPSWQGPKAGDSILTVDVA
INS promoter inh cell count = further read-out of INS promoter inh, marked with its call; normalized cell count, %; measured here: cell count, toxicity; reference of the scale not given here;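 cells exposed to compound for 48 h; stained nuclei by imaging scaled within each plate; lower means fewer cells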
HSV replic up primary fold = second read-out of HSV replic up, no call of its own (marks repeat the call); fold increase; compound at 10 µM; measured here: primary screen fold increase 10 uM; tested in PC3 cells;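 GFP signal in the first replicate; 1 = infected wells without compound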
Active calls of the source: *. Rows are unselected; 1.3% or so of the library scored in one or more.

O=C(Nc1nc2ccccc2s1)c1cc(-c2ccco2)nc2ccccc12 was read as RGS16-Gao 92, HSV replic up inactive, PKD1 kinase inh -11, INS promoter inh 43, GALR2 ag -0.9, INS promoter inh cell count 126 and HSV replic up primary fold 1.
Screening CCC(=O)N(Cc1ccc(S(N)(=O)=O)cc1)C1CC(=O)N(c2ccccc2)C1=O (centres undefined) returned RGS16-Gao 105, HSV replic up inactive, PKD1 kinase inh -2, INS promoter inh 40, INS promoter inh cell count 100 and HSV replic up primary fold 0.87.
Screening CCOc1cc(S(=O)(=O)NC2CC2)c(OCC)cc1-n1cnnn1 returned RGS16-Gao 101, HSV replic up inactive, PKD1 kinase inh -2, INS promoter inh -30, GALR2 ag 0.6, INS promoter inh cell count 85 and HSV replic up primary fold 1.
For COC(=O)c1ccc2c(=O)n(Cc3ccc(C(=O)NC(C)C)cc3)c(=S)[nH]c2c1 the results were RGS16-Gao 108, HSV replic up inactive, PKD1 kinase inh -1, INS promoter inh -73, INS promoter inh cell count 133 and HSV replic up primary fold 0.7.
CCc1ccccc1NC(=O)c1cccc(NC(=O)/C=C/c2ccco2)c1 was read as RGS16-Gao 109, HSV replic up inactive, PKD1 kinase inh -4, GALR2 ag -2.8 and HSV replic up primary fold 1.
O=C(O)/C(=C1\OC(=O)c2ccccc21)c1ccccc1 was read as RGS16-Gao 99, HSV replic up inactive, PKD1 kinase inh -5, INS promoter inh -275, GALR2 ag -2.0, INS promoter inh cell count 79 and HSV replic up primary fold 0.91.
COCCCn1c(SCC(=O)O)nc2cc(OC)c(OC)cc2c1=N was read as RGS16-Gao 99, HSV replic up inactive, PKD1 kinase inh 4, INS promoter inh -12, INS promoter inh cell count 79 and HSV replic up primary fold 0.95.
`CC(C)(O)/C=C1/Oc2ccccc2C1N1CCCCC1` (centres undefined) gave RGS16-Gao 100, HSV replic up inactive, PKD1 kinase inh 6, INS promoter inh -17, GALR2 ag -4.6, INS promoter inh cell count 143 and HSV replic up primary fold 1.1.
`CCOC(=O)NC(=O)/C(C#N)=C\Nc1ccc(Cl)cc1Cl` gave RGS16-Gao 97, HSV replic up inactive, PKD1 kinase inh 5 and HSV replic up primary fold 1.
For C/C=C/CSc1nc2c(c(=O)[nH]c(=O)n2C)n1CCC the results were RGS16-Gao 98, HSV replic up inactive, PKD1 kinase inh -15, INS promoter inh 82*, GALR2 ag 0.1, INS promoter inh cell count 98* and HSV replic up primary fold 0.84.
CCc1ccc(NC(=O)CSC2=C(C#N)C(c3ccc4c(c3)OCO4)CC(=O)N2)cc1 (centres undefined) was read as HSV replic up inactive, PKD1 kinase inh 1, INS promoter inh -38, GALR2 ag 0.0, INS promoter inh cell count 75 and HSV replic up primary fold 0.88.
CN(C)S(=O)(=O)N(CC(=O)NCCSCc1ccccc1)c1ccccc1 was read as RGS16-Gao 93, HSV replic up inactive, PKD1 kinase inh -3 and HSV replic up primary fold 1.
`NS(=O)(=O)c1ccc(CCNC(=O)CCCCCn2c(=S)[nH]c3ccc(Br)cc3c2=O)cc1` gave RGS16-Gao 125, HSV replic up inactive, PKD1 kinase inh -3, INS promoter inh -36, INS promoter inh cell count 114 and HSV replic up primary fold 0.87.
Screening CCOC(=O)N1CCN(c2ccc(Cl)cc2)CC1 returned RGS16-Gao 108, PKD1 kinase inh -3 and GALR2 ag -0.1.
Screening Cc1ccc(Oc2nc3ccccn3c(=O)c2/C=C(\C#N)C(=O)NC2CCS(=O)(=O)C2)cc1 (centres undefined) returned RGS16-Gao 89, HSV replic up inactive and HSV replic up primary fold 0.91.
Screening Cc1cc(C)c(C#N)c(N2CCCC2)n1 returned RGS16-Gao 101, HSV replic up inactive, PKD1 kinase inh -4, INS promoter inh -29, GALR2 ag -2.9, INS promoter inh cell count 140 and HSV replic up primary fold 1.2.
For CCCCN(C)C(=O)c1c[nH]c2ccc(S(=O)(=O)N3CCOCC3)cc2c1=O the results were RGS16-Gao 99, HSV replic up inactive, PKD1 kinase inh -1, GALR2 ag -1.2 and HSV replic up primary fold 0.89.
COc1cc(C2=NOC(C(=O)N3CCCc4ccccc43)C2)cc(OC)c1OC (centres undefined) was read as RGS16-Gao 105, HSV replic up inactive, PKD1 kinase inh 18, GALR2 ag -2.5 and HSV replic up primary fold 0.87.
For COc1ccccc1N1CCN(C(=O)CSc2nc(-c3ccco3)cc(C(F)(F)F)n2)CC1 the results were RGS16-Gao 100, HSV replic up inactive, PKD1 kinase inh 4, GALR2 ag -0.7 and HSV replic up primary fold 1.
Screening COc1cc(NC(=O)CSc2nc3ccccc3n2-c2ccccc2)c(C)cc1[N+](=O)[O-] returned RGS16-Gao 110, HSV replic up inactive, PKD1 kinase inh -2, INS promoter inh -7, GALR2 ag -0.8, INS promoter inh cell count 144 and HSV replic up primary fold 1.
Screening CCn1c(SC(C)C(=O)NC2CCCc3ccccc32)nnc1-c1cccs1 (centres undefined) returned RGS16-Gao 94, HSV replic up inactive, PKD1 kinase inh -3, INS promoter inh -7, GALR2 ag -0.8, INS promoter inh cell count 100 and HSV replic up primary fold 0.96.
For N=c1sccn1CC(=O)Nc1cccc2ccccc12 the results were RGS16-Gao 96, HSV replic up inactive, PKD1 kinase inh 5, INS promoter inh -9, GALR2 ag -0.5, INS promoter inh cell count 91 and HSV replic up primary fold 0.94.
For CC1CCC(C(=O)NNC(=O)c2cc(-c3ccco3)[nH]n2)CC1 (centres undefined) the results were RGS16-Gao 100, HSV replic up inactive, PKD1 kinase inh 4 and HSV replic up primary fold 1.1.
For O=C(Nc1cc(Cl)ccc1Oc1ccccc1)c1ccccc1F the results were RGS16-Gao 106, HSV replic up inactive, PKD1 kinase inh -1, GALR2 ag 1.4 and HSV replic up primary fold 1.2.

In the list so far, these have a cyano group:
`CCOC(=O)NC(=O)/C(C#N)=C\Nc1ccc(Cl)cc1Cl` gave RGS16-Gao 97, HSV replic up inactive, PKD1 kinase inh 5 and HSV replic up primary fold 1.
CCc1ccc(NC(=O)CSC2=C(C#N)C(c3ccc4c(c3)OCO4)CC(=O)N2)cc1 (centres undefined) was read as HSV replic up inactive, PKD1 kinase inh 1, INS promoter inh -38, GALR2 ag 0.0, INS promoter inh cell count 75 and HSV replic up primary fold 0.88.
Screening Cc1ccc(Oc2nc3ccccn3c(=O)c2/C=C(\C#N)C(=O)NC2CCS(=O)(=O)C2)cc1 (centres undefined) returned RGS16-Gao 89, HSV replic up inactive and HSV replic up primary fold 0.91.
Screening Cc1cc(C)c(C#N)c(N2CCCC2)n1 returned RGS16-Gao 101, HSV replic up inactive, PKD1 kinase inh -4, INS promoter inh -29, GALR2 ag -2.9, INS promoter inh cell count 140 and HSV replic up primary fold 1.2.

(continued)
Screening COc1cccc2c1OC1(CCN(C(C)C)CC1)N1N=C(c3cccnc3)CC21 (centres undefined) returned RGS16-Gao 96, HSV replic up inactive and HSV replic up primary fold 1.1.
Screening Clc1ccc(Nc2nc3ccccc3n3nnnc23)cc1 returned RGS16-Gao 105, HSV replic up inactive, PKD1 kinase inh -9, INS promoter inh 11, GALR2 ag -1.1, INS promoter inh cell count 109 and HSV replic up primary fold 0.86.
For COc1cc(S(=O)(=O)n2cnc(C)c2)ccc1Cl the results were RGS16-Gao 111, HSV replic up inactive, PKD1 kinase inh -8, INS promoter inh 21, INS promoter inh cell count 82 and HSV replic up primary fold 0.97.
Screening CCn1c(=O)c(-c2nc3ccccc3[nH]2)c(O)c2ccccc21 returned RGS16-Gao 103, HSV replic up inactive, PKD1 kinase inh -1 and HSV replic up primary fold 1.
Screening Oc1[nH]c2ccccc2c1/C=N/N1CCCCC1 returned RGS16-Gao 101, PKD1 kinase inh -5 and GALR2 ag -1.7.
For Cc1ccc(OCC(=O)N2CCN(S(=O)(=O)c3ccccc3[N+](=O)[O-])CC2)cc1 the results were RGS16-Gao 103, HSV replic up inactive, PKD1 kinase inh 5 and HSV replic up primary fold 0.74.
For CCCC(=O)Nc1nnc(SCC(=O)Nc2ccc3c(c2)OCCO3)s1 the results were RGS16-Gao 102, HSV replic up inactive, PKD1 kinase inh -3, INS promoter inh 43, INS promoter inh cell count 101 and HSV replic up primary fold 0.86.
Cc1ccccc1NC(=O)C1c2ccccc2Oc2ccccc21 was read as RGS16-Gao 104, HSV replic up inactive, PKD1 kinase inh -4, INS promoter inh 10, GALR2 ag -2.3, INS promoter inh cell count 148 and HSV replic up primary fold 0.94.
For Cc1cc(NC(=O)CCC(=O)N(CCc2ccccc2)C(C(=O)NC2CCCC2)c2ccco2)no1 (centres undefined) the results were RGS16-Gao 110, HSV replic up inactive, PKD1 kinase inh -10, INS promoter inh -92, GALR2 ag -1.8, INS promoter inh cell count 110 and HSV replic up primary fold 0.87.
COc1ccc(NC2C=CS(=O)(=O)C2)cc1 (centres undefined) was read as RGS16-Gao 96, HSV replic up inactive, PKD1 kinase inh -4, INS promoter inh -6, GALR2 ag -2.1, INS promoter inh cell count 93 and HSV replic up primary fold 1.
CCCCN(C)C(=O)CCCc1c[nH]c2ccccc12 was read as RGS16-Gao 78, HSV replic up inactive, PKD1 kinase inh 7, INS promoter inh -72, GALR2 ag 4.1, INS promoter inh cell count 1 and HSV replic up primary fold 1.
`CCN(CC)C(=O)CSc1nc2cc3c(cc2c(=O)n1CCCC(=O)NCCc1ccc(OC)c(OC)c1)OCO3` gave RGS16-Gao 102, HSV replic up inactive, PKD1 kinase inh -3, INS promoter inh -7, INS promoter inh cell count 49 and HSV replic up primary fold 0.94.
`Cc1ccc2cc3c(NC(=O)c4ccco4)nn(CC(C)C)c3nc2c1` gave RGS16-Gao 94, HSV replic up inactive, PKD1 kinase inh -18, INS promoter inh 59, GALR2 ag 0.5, INS promoter inh cell count 223 and HSV replic up primary fold 0.93.
Screening CCc1ccc(C(=O)COC(=O)c2cccs2)cc1 returned RGS16-Gao 179, PKD1 kinase inh -1, INS promoter inh 0, GALR2 ag -0.9 and INS promoter inh cell count 65.
Screening CCOC(=O)N1CCN(C(=O)c2cn(CC)c3ccc(S(=O)(=O)N4CCCCC4)cc3c2=O)CC1 returned RGS16-Gao 125, PKD1 kinase inh 4, INS promoter inh 43 and INS promoter inh cell count 83.
`Cc1ccc(C)c(-n2cc(CN3CCCN(C=O)CC3)c(-c3ccccc3)n2)c1` gave RGS16-Gao 105, HSV replic up inactive, PKD1 kinase inh -7 and HSV replic up primary fold 0.94.
COc1ccc(CNC(=O)NC2CCCCC2)cc1 was read as RGS16-Gao 119, HSV replic up inactive, PKD1 kinase inh -17, INS promoter inh -50, GALR2 ag -0.6, INS promoter inh cell count 113 and HSV replic up primary fold 0.87.
O=C(O)/C=C\C(=O)Nc1ccc(Oc2ccc(Br)cc2)cc1 was read as RGS16-Gao 102, HSV replic up inactive, PKD1 kinase inh -1 and HSV replic up primary fold 1.1.
For COc1ccc(C2=NCN(c3ccc(C)cc3)C(=S)N2)cc1 the results were RGS16-Gao 126, HSV replic up inactive, PKD1 kinase inh -6, INS promoter inh 23, GALR2 ag -2.2, INS promoter inh cell count 124 and HSV replic up primary fold 1.
CCOCCCn1c(=NC(=O)c2ccco2)c(C(=O)OCC)cc2c(=O)n3cccc(C)c3nc21 was read as RGS16-Gao 99, HSV replic up inactive and HSV replic up primary fold 0.83.
For CCOc1ccc(C(=O)NCC(=O)OC(C)C(=O)NCc2ccco2)cc1OCC (centres undefined) the results were RGS16-Gao -2, HSV replic up inactive, PKD1 kinase inh -2, GALR2 ag -1.5 and HSV replic up primary fold 0.95.
Screening C=C1SC(=Nc2ccccc2Cl)N(C(=O)c2sc3ccccc3c2Cl)C1(C)C returned RGS16-Gao -13*, HSV replic up inactive and HSV replic up primary fold 1.1.
Screening CCCOC(=O)/C(C)=N\NC(=O)c1ccco1 returned RGS16-Gao 88, HSV replic up inactive, PKD1 kinase inh 0, INS promoter inh -6, GALR2 ag -2.4, INS promoter inh cell count 100 and HSV replic up primary fold 1.
Screening COc1ccc(N2C(=O)c3ccccc3NC2c2ccc(OC)c(Cn3cc([N+](=O)[O-])cn3)c2)cc1 (centres undefined) returned RGS16-Gao 99, HSV replic up inactive and HSV replic up primary fold 1.
